Bioassay records deposited in PubChem BioAssay by National Center for Advancing Translational Sciences (NCATS).
Bst PK mod: alters activity of Bacillus stearothermophilus pyruvate kinase. partly purified Bacillus stearothermophilus pyruvate kinase, luminescence ATP production; ribose 5-phosphate activator present at AC10. Potency, µM. hit rate 1.2% among 51,000; in the data active means potency below about 11 µM; inconclusive means mostly about 12 µM to 25 µM; inactive means weaker than that;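 the screen sought inhibitors and activators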;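 further: potency means the concentration at half of the fitted maximal effect; scaled between full activation by ribose 5 phosphate and full inhibition by luteolin; about four in five hits inhibit and the cells do not say which; series up to 57 µM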
TsaE inh: inhibitors of E. coli YjeE (TsaE); hit rate 0.05% among 71,000; purified YjeE, fluorescence polarisation of a bound ADP probe; AID 605; Potency, µM; P0AF67; active = well fitted falling curve; inconclusive = weaker or top-dose-only fall, or a rising curve; inactive = flat or poorly fitted curve;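 further: top concentration of the series not given in the record; excess ADP was the control for the full effect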
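Fluorescence polarization of a BODIPY Texas Red–ADP probe (2 uM) bound to purified YjeE (10 uM) was read after 15 min room-temperature incubation with compounds. Loss of polarization marks inhibitors; ADP serves as titrated control.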
* hit, by the source's call; i = inactive; . = not tested or not shown. The list is partial. The share of hits here may be higher or lower than overall.

Every second line gives: Bst PK mod | TsaE inh
COc1ccc(OC)c(-c2cc(C(=O)Nc3c(C)n(C)n(-c4ccccc4)c3=O)no2)c1
 : . | i
Cc1nn2c(nc1=O)SCC(c1ccccc1)=N2
 : >57 | i
CCOC(=O)c1[nH]nc(-c2c(O)cc(C)cc2O)c1-c1csc(C)n1
 : >57 | i
O=C(O)c1c(F)c(F)c(F)c(F)c1-c1ccc(Cl)cc1
 : . | i
O=C(OCC(=O)N1CCCc2ccccc21)C1CCN(S(=O)(=O)c2cccs2)CC1
 : >57 | i
O=S(=O)(c1ccc(N2CC=C(c3ccccc3)CC2)nc1)N1CCCC1
 : >57 | i
COc1cccc(C2=CC(c3ccccc3)n3ncnc3N2)c1 (stereo not drawn)
 : >26 | .
COC(=O)CCC(=O)Nc1ccc(Cl)c(Cl)c1
 : >57 | i
COc1ccc(N=C(C)C2=C(O)COC2=O)cc1
 : . | i
Clc1ccccc1C(Nc1ncccn1)Nc1ncccn1
 : . | i
CCOC(=O)NC1(NC2CCCCC2)Oc2ccccc2O1
 : >57 | i
Cn1c(C(=O)O)c(CC(=O)Nc2ccc3c(c2)OCCO3)c2ccccc21
 : >57 | i
CCc1cc(=O)oc2cc(C)cc(OC(=O)c3ccco3)c12
 : . | i
Cc1ccc(Cl)cc1NC(=O)CC(O)(C(F)(F)F)C(F)(F)F
 : >57 | i
COc1ccc(CNC(=O)C2CCCN2C(=O)NC2CCCCC2)cc1 (stereo not drawn)
 : >57 | i
COC(=O)COc1ccc(S(=O)(=O)NCCC2=CCCCC2)cc1C
 : >57 | i
Cc1cccc2cc(CN(CC3CCCO3)C(=O)c3ccco3)c(=O)[nH]c12 (stereo not drawn)
 : >57 | i
COC(=O)[C@@]1(Cc2ccccc2)[C@H]2c3cc(C(=O)N4CCCC4)n(Cc4c(CO)[nH]cc(C)c4=O)c3C[C@H]2CN1C(=O)c1ccccc1
 : . | i
CCN(CC)S(=O)(=O)c1ccc(/C(O)=C(\C#N)c2nc3ccccc3n2C)cc1
 : >57 | i
Cc1cc(C(C)(C)C)cc(S(=O)(=O)NCCO)c1C
 : >57 | i

Additional entries.
Every second line gives: Bst PK mod | TsaE inh
COc1cccc(N2C(=O)CC(c3c[nH]c4ccccc34)C2=O)c1 (stereo not drawn)
 : >57 | i
Cc1ccc(C(=O)Nc2ccc3c(c2)OCO3)cc1S(=O)(=O)N1CCCCC1
 : >57 | i
CC/C(=C1/C(=O)CC(C)(C)C(C(=O)OC)C1=O)N1CCCC1 (stereo not drawn)
 : >57 | i
COc1ccc(C2CC(=O)C(C=NCCCN3CCOCC3)=C(O)C2)cc1 (stereo not drawn)
 : . | i
CC1CN(S(=O)(=O)c2cccc(-c3cn4ccccc4n3)c2)CC(C)O1 (stereo not drawn)
 : >57 | i
CN1CCN(Cc2nc3c(c(=O)n(C)c(=O)n3C)n2CCc2ccccc2)CC1
 : . | i
COc1cccc(C(=O)N2CCN(Cc3cccc(F)c3)CC2)c1
 : . | i
O=C(CSc1nnc(-c2ccc(Cl)cc2)o1)N1CCN(c2ccccc2)CC1
 : >57 | i
O=C1NC(c2ccccc2)C(C(=O)c2cccs2)C(O)(C(F)(F)F)N1 (stereo not drawn)
 : >57 | i
COc1ccc(CNC(=O)C2CCCN(c3nc4ccccc4o3)C2)c(OC)c1 (stereo not drawn)
 : >57 | i
COc1cc(OC)c(C2CC(=O)N3CN(C)CSC3=C2C#N)cc1OC (stereo not drawn)
 : . | i
O=C(NC1CCCc2ccccc21)C1CCN(c2c3c(nc4ncnn24)CCC3)CC1 (stereo not drawn)
 : >57 | i
O=C(Nc1ccc(S(=O)(=O)N2CCCCCC2)cc1)c1ccco1
 : . | i
CCCOc1nc2c(c(=O)n(C)c(=O)n2C)n1Cc1cccc2ccccc12
 : >57 | i
CCOC(=O)CN(C)Cc1c[nH]c2ccccc12
 : >57 | i
CCOC(=O)CC(=O)Nc1nnc(CC(C)C)s1
 : >57 | i
COC(=O)C(C)N(C#N)c1nc(C)nc(C)n1 (stereo not drawn)
 : >57 | i
O=c1[nH]nc2n1CCCCC2
 : >26 | .
CCOC(=O)CSCc1nc(-c2ccc(Cl)cc2)oc1C
 : . | i
Cc1nc2ccc(NC(=O)N3CCOCC3)cc2s1
 : >57 | i

Additional records follow.
Every second line gives: Bst PK mod | TsaE inh
CC(C)(Oc1ccc(CCNC(=O)c2ccc(Cl)cc2)cc1)C(=O)O
 : >26 | i
CS(=O)(=O)Nc1cccc(-c2ccc3ncnc(Nc4ccc(F)cc4)c3c2)c1
 : . | i
CCOCCCNC(=O)c1cn(CC(C)C)c(=O)c2cc(OC)c(OC)cc12
 : . | i
CCOC(=O)Cc1csc(NC(=O)Cc2cccs2)n1
 : . | i
CCOc1ccc(-c2noc(CCC(N)=O)n2)cc1OCC
 : >57 | i
CCCC(=O)Nc1cc(-c2nnc(OC)c3ccccc23)ccc1N1CCOCC1
 : >57 | i
Cc1ccc(S(=O)(=O)NCC(=O)NC2CCCC2)cc1
 : >57 | i
O=C(O)[C@H](Cc1ccc(O)c([N+](=O)[O-])c1)N1C(=O)c2ccccc2C1=O
 : . | i
COC(=O)c1cccc(S(=O)(=O)N2CCC(NC(=O)Nc3cccc(F)c3)CC2)c1
 : >57 | i
COc1ccc(OC)c2[nH]c(=O)c(CCNC(=O)CC(C)C)cc12
 : i | i
COc1cc(-c2nnc(SCc3ccccc3Cl)o2)cc(OC)c1OC
 : i | i
Cc1nc(C)n(CC(O)COc2ccc3c(c2)CCC3)n1 (stereo not drawn)
 : >57 | i
Cc1cc(NC(NC(=O)c2ccco2)(C(F)(F)F)C(F)(F)F)no1
 : >57 | i
CN(Cc1ccco1)c1ccnc(-c2cccnc2)n1
 : . | i
CCOc1ccccc1-c1nc(-c2ccc(NC(=O)Cc3ccc(OC)cc3)cc2)no1
 : >57 | i
COCCn1c(=O)c(-c2ccc(F)cc2)nc2cnc(Oc3cccc(Cl)c3)nc21
 : . | i
O=C(NCc1ccc(F)cc1)c1cc(S(=O)(=O)N2CCOCC2)ccc1F
 : >57 | i
COc1ccc(-n2c(=O)c(-c3cn(C)c4ccccc34)nc3cncnc32)cc1
 : . | i
CN(C)Cc1c(C#N)c2ccccc2n1C
 : >57 | i
Cn1c(=O)c2c(nc(CN3CCN(C(=O)c4ccco4)CC3)n2Cc2cccc(Cl)c2)n(C)c1=O
 : >57 | i

Continued:
Every second line gives: Bst PK mod | TsaE inh
Cc1ccc2[nH]c(=O)c(CN(CCN3CCOCC3)C(=O)Nc3ccccc3F)cc2c1
 : >57 | i
COc1ccccc1CNc1ncncc1-c1ccccc1C
 : . | i
CS(=O)(=O)N1CCC(C(=O)NCCC2=CCCCC2)CC1
 : >57 | i
CCCc1cc(-c2n[nH]c(C)c2-c2ccc(C(=O)OCC)o2)c(O)cc1O
 : >57 | i
CC(=O)Nc1c(OC(C)=O)ccc2c(C)cc(=O)oc12
 : >57 | i
O=C(NCc1ccco1)c1ccccc1Nc1ccc(F)cc1
 : >57 | i
O=C(c1ccncc1)N1CCC2(CCCN(c3ccncc3)C2)CC1
 : . | i
CN(C)c1ccc(/C=c2\sc3n(c2=O)CCCN=3)cc1
 : 2.7* | i
Cc1c(N=C2Nc3cccc4cccc2c34)c(=O)n(-c2ccccc2)n1C
 : . | i
O=C(CSc1nnc(-c2ccco2)n1CC1CCCO1)NC1CCCC1 (stereo not drawn)
 : >57 | i
CCOc1cc(C(C#N)N2CCOCC2)ccc1OC (stereo not drawn)
 : >57 | i
CCOC(=O)c1cnn(-c2ncnc3c2cnn3Cc2ccccc2)c1N
 : . | i
O/N=C/CCn1c(=S)sc2ccccc21
 : . | i
O=C(NC1=NCCS1)c1nc(-c2ccccc2)n(-c2ccccc2)n1
 : >57 | i
CCN(CC)C(=O)Cn1c(=O)n(-c2ccccc2)c(=O)n1CC(=O)N(CC)CC
 : . | i
O=S(=O)(c1cccc(-c2cn3cc(Cl)ccc3n2)c1)N1CCOCC1
 : . | i
CCN(Cc1cc(Cl)cc(C)c1O)Cc1c(O)ccc2ccccc12
 : . | i
CCN1CCN(Cc2ccc(NC(=O)Nc3ccccc3OC)cc2)CC1
 : . | i
COc1ccccc1S(=O)(=O)Cc1ccc(C(=O)NCCN2CCCCCC2)o1
 : . | i
CC(=O)C1=C(C)Nc2ncnn2C1c1ccccc1OCc1ccccc1 (stereo not drawn)
 : >57 | i

(more compounds)
Every second line gives: Bst PK mod | TsaE inh
COc1ccc(CCC(=O)NC2=NCCS2)cc1OC
 : >57 | i
COc1ccc2c(c1)CCCN2C(N)=O
 : >57 | i
c1ccc(-n2cnnc2SCc2cn3ccsc3n2)cc1
 : >57 | i
O=C(O)CCC(=O)NC1CCCCCCC1
 : >57 | i
COc1ccc(C(=O)NCC2OCCc3ccccc32)c(O)c1 (stereo not drawn)
 : >57 | i
COc1ccc(N=c2oc3c(OC)cccc3cc2C(=O)NCc2ccco2)cc1OC
 : >57 | i
c1ccc(-n2nnnc2SCc2cn3ccccc3n2)cc1
 : >57 | i
O=C(O)CCC(=O)Nc1ccc2c(c1)oc1ccccc12
 : . | i
CC1(Cc2cn(CCC#N)c3ccccc23)OCCO1
 : >57 | i
CCCC1=C(C(=O)OCC)C(c2ccc(O)cc2)n2ncnc2N1 (stereo not drawn)
 : >57 | i
COCCCNC(=O)CCn1c(=O)c2ccccc2n(CC(=O)Nc2ccc(C)cc2C)c1=O
 : >57 | i
Cc1cc(NS(=O)(=O)c2ccc(NC(=O)C(C)N3C(=O)c4ccccc4C3=O)cc2)nc(C)n1 (stereo not drawn)
 : >57 | i
CC1CC(C)CN(CC(=O)Nc2ccc(S(N)(=O)=O)cc2)C1 (stereo not drawn)
 : >57 | i
COc1ccc(-c2nc(-c3ccc(NC(=O)c4ccc(Br)o4)cc3)no2)cc1OC
 : >57 | i
C=CCn1c(=O)/c(=C/c2ccc(Cl)cc2)s/c1=C(/C#N)c1nnc2n1CCCCC2
 : >57 | i
O=C(CSCc1cnn(-c2ccccc2)c1-n1cccc1)NCc1cccs1
 : >57 | i
COc1ccc(C)cc1NC(=O)C1CCN(S(=O)(=O)c2cccc3cccnc23)CC1
 : . | i
COCCn1c(SCC#N)nnc1-c1ccccc1O
 : >57 | i
Cc1cc(N2CCN(c3ccccc3)CC2)nc(-n2nc(C)cc2C)n1
 : . | i
COc1ccc(S(=O)(=O)NC(CC(=O)N2CCc3ccccc32)c2ccco2)cc1 (stereo not drawn)
 : >57 | i

Later entries
Every second line gives: Bst PK mod | TsaE inh
Cc1cccn2cc(CNC(=O)CC3CCCC3)nc12
 : >57 | i
COc1ccc(NC(=O)Nc2cccs2)cc1OC
 : i | i
N#Cc1c(N2CCN(C(=O)c3ccco3)CC2)nc(-c2ccccc2)c2c1CCCC2
 : . | i
C/C=C/Cn1c(SCc2ccccc2)nc2c1c(=O)[nH]c(=O)n2C
 : >57 | i
CCOC(=O)C(Oc1ccc(=O)[nH]n1)C(C)=O (stereo not drawn)
 : >26 | .
COC(=O)c1ccc(CSc2nc3c(cnn3-c3ccccc3)c(=O)[nH]2)o1
 : >57 | i
CN(Cc1nc(-c2ccccn2)no1)S(=O)(=O)c1ccc(Br)cc1
 : >57 | i
[O-][n+]1onc2c1C(N1CCOCC1)CCC2N1CCOCC1 (stereo not drawn)
 : >57 | i
CCOc1ccccc1-c1nnc(SCC(=O)Nc2ccccc2)o1
 : >57 | i
CCC(c1nnnn1CCOC)N1CCN(c2cccc(C(F)(F)F)c2)CC1 (stereo not drawn)
 : >57 | i
O=C(CSc1nnc(COc2ccccc2)o1)Nc1nccs1
 : . | i
N#Cc1ccccc1NC(=O)COC(=O)c1ccc(S(=O)(=O)N2CCCC2)cc1
 : >57 | i
CCOC(=O)N1CCN(Cc2nc(-c3ccc(C)cc3)no2)CC1
 : >57 | i
CCOCCCNC(=O)CN1CCN(c2ccc(F)cc2)CC1
 : >57 | i
COc1ccc(S(=O)(=O)Nc2ccc(NC(C)=O)cc2)cc1OC
 : >57 | i
COC(=O)c1ccc(C(NC(=O)OCc2ccccc2)/C(=C/[C@@H](C)C(=O)NCc2ccc(-c3ccccc3)cc2)c2cccnc2)cc1 (stereo partly drawn)
 : . | i
Cc1ncc2c(c1OC(=O)c1ccccc1)COC(C)(C)OC2
 : >57 | i
Brc1ccccc1-c1nnc(COc2ncnc3c2cnn3-c2ccccc2)o1
 : >57 | i
O=c1c2c(nc3nc(SCc4ccccc4)[nH]n13)CCC2
 : >57 | i
C=CCNc1oc(COc2ccc(C)cc2)nc1C#N
 : . | i

In another format: entries from further up.
Molecule,Bst PK mod,TsaE inh
CS(=O)(=O)Nc1cccc(-c2ccc3ncnc(Nc4ccc(F)cc4)c3c2)c1,.,i
CCOCCCNC(=O)c1cn(CC(C)C)c(=O)c2cc(OC)c(OC)cc12,.,i
CCOC(=O)Cc1csc(NC(=O)Cc2cccs2)n1,.,i
CCOc1ccc(-c2noc(CCC(N)=O)n2)cc1OCC,>57,i
CCCC(=O)Nc1cc(-c2nnc(OC)c3ccccc23)ccc1N1CCOCC1,>57,i
Cc1ccc(S(=O)(=O)NCC(=O)NC2CCCC2)cc1,>57,i

(more compounds)
Every second line gives: Bst PK mod | TsaE inh
Cc1csc(SCC(=O)Nc2c(C)n(C)n(-c3ccccc3)c2=O)n1
 : >57 | i
O=C(Nc1nc2c(Cl)cccc2s1)c1ccc(Br)o1
 : >57 | i
CN(C)S(=O)(=O)c1ccc(C(=O)Nc2ccc(OCC(=O)N3CCOCC3)cc2)cc1
 : . | i
CN(C)S(=O)(=O)c1cccc(C(=O)C2=C3SC=C(c4ccccc4)N3CC2)c1
 : >57 | i
COc1cccc(-c2cncnc2NCc2cccc(C)c2)c1
 : . | i
CC(C)(O)C#Cc1ccccc1C(=O)NC(CC(N)=O)C(=O)O (stereo not drawn)
 : >57 | i
